Screening results (PubChem BioAssay)
Autofluor counter: compound fluorescence in toxin protease inhibitor counterscreen | AID 624483 | fluorescence intensity (no concentration beside the values) | actives 3.1% (n = 360,000) | compound autofluorescence counterscreen, microsphere flow cytometry; stronger effect = higher value;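 active = at least 3 SD above the mean of all compounds, about 16000 in these data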;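 note: 100 nL of 1 mM stock went into each well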
Numbers without * were called inactive. These rows are one share of the data; rates above refer to the full screens.

Structure,Autofluor counter
CCCCC1Cc2[nH]c(=S)[nH]c(=O)c2C(c2ccc3ccccc3c2)O1 (stereo unspecified),5836
C[C@@H]1CN([C@H](C)CO)C(=O)c2c(c3ccccc3n2C)-c2ccccc2CO[C@H]1CN(C)Cc1ccccc1,3677
CC12CCC(O)CC1CCC1C2CCC2(C)C(C(=O)CO)CCC12 (stereo unspecified),5243
COc1ccccc1CNc1nc2cc(-c3ccsc3)sc2c(=O)n1C,3653
C[C@@H]1CCCCO[C@H](CN(C)S(=O)(=O)c2cccs2)[C@H](C)CN([C@@H](C)CO)C(=O)c2cc(NC(=O)NC3CCCCC3)ccc2O1,3691
CC(=O)Nc1cccc(-c2ccnc3c2CC(C)(C(=O)Nc2cccc(Oc4ccccc4)c2)O3)c1 (stereo unspecified),4251
Cc1ccc(-c2nc3c4ccccc4ccn3c2Cc2cccc(Cl)c2)cc1,6247
Cc1ccc(OCC(=O)Nc2ccc(S(=O)(=O)NC3=NCCCCC3)cc2)cc1,3593
Clc1ccc(-c2cnc3cccnn23)cc1,2778
COC(=O)C(c1ccccc1)C(CC(=O)c1ccccc1)c1ccccc1 (stereo unspecified),3544
Cn1ccc2c(-c3ccc(C(=O)O)cc3)cc3c(c21)C1CCC3C1 (stereo unspecified),6150
O=S1(=O)CC(N2CCN(CC3CC3)CC2)CN1Cc1ccccc1 (stereo unspecified),5119
O=C(O)c1ccc(CNC(=O)C2CCN(S(=O)(=O)c3cccs3)CC2)cc1,3914
CN1OC[C@@H]2CN(C(=O)c3cccnc3)[C@H](c3ccc(N4CCCCC4)cc3)C[C@@H]21,4426
O=S1(=O)CC(N2CCN(CCO)CC2)CN1Cc1cn(Cc2ccc(C(F)(F)F)cc2)nn1 (stereo unspecified),6497
CCNC(=O)C1(C)CCN(C(=O)c2ccccc2)C1 (stereo unspecified),3879
O=C(CC[C@H]1O[C@@H](n2ccc(=O)[nH]c2=O)[C@H](O)[C@@H]1O)NCc1ccco1,6345
O=C(O)c1nc(-c2ccccc2)c(C(=O)NC2CC2)[nH]1,4253
CSCCC(c1nc2ccccc2[nH]1)n1c(C)nc2ccccc21 (stereo unspecified),6466
CCCNC(=O)C1(C)CCCN(Cc2ccsc2)C1 (stereo unspecified),3038
O=C1c2ccccc2C(c2nnnn2-c2ccc3c(c2)OCCO3)N1Cc1ccc2c(c1)OCO2 (stereo unspecified),6477
CCCCCCn1c(=O)n2n(c1=O)[C@@H]1CN(S(=O)(=O)c3ccc(C)cc3)C[C@]1(O)[C@@H](OC(=O)NCC1CCCCC1)C2,3949
CC(=O)c1cccc(-c2ccc3c(c2)C(C)(Cc2ccccc2F)C(=O)N3)c1 (stereo unspecified),2975
CCCNC(=O)c1cc2c(c(-c3cccc(-c4cc5ccccc5o4)c3)n1)[C@@H](CCO)N(C(=O)NC(C)C)C2,4454
Cc1noc(C)c1S(=O)(=O)N(C)C[C@H]1OCc2cn(nn2)CCCC(=O)N([C@H](C)CO)C[C@@H]1C,4293
COc1cccc(N2CCN(C(=O)c3ccc(Cl)c(S(=O)(=O)N4CCCCCC4)c3)CC2)c1,3456
CC(C)c1cccc(-c2csc(C(C)(O)c3cccc(F)c3)n2)c1 (stereo unspecified),3046
Cc1ccc(C(NC(=O)C2CCN(CCOc3ccc(Cl)cc3)CC2)c2ccccn2)cc1 (stereo unspecified),4060
CCC(c1nnnn1-c1c(C)cccc1C)N1CCN(C/C=C/c2ccccc2)CC1 (stereo unspecified),6404
Cc1ncc([N+](=O)[O-])n1CC(=O)Nc1ccccc1Cl,3769
Cc1[nH]nc2c(=S)[nH]c(=O)[nH]c12,3357
O=C(Cn1ccnc1[N+](=O)[O-])N(CCO)CCO,3642
Cc1ccc(S(=O)(=O)N2CCC(=O)c3ccccc32)cc1,2940
CCCCCCCCN1C(=O)[C@H](CC(=O)NCc2ccccc2)C[C@@]2(C(=O)OC)CCCCC=C12,6717
COC(=O)[C@]12CCCCC=C1N(Cc1cccc3ccccc13)C(=O)[C@H](CC(=O)N1CCN(C(=O)C3CC3)CC1)C2,5163
CC(C)Oc1ccc(CN2CCC2(C)C(=O)Nc2cccc3cccnc23)cc1 (stereo unspecified),3474
CC(C)[C@@H]1Cc2[nH]c(=O)[nH]c(=O)c2[C@H](c2ccc(F)cc2)O1,6276
Cc1ccc(S(=O)(=O)N2C[C@H]3n4c(=O)ccc(=O)n4C[C@H](OC(=O)NCc4ccccc4F)[C@@]3(O)C2)cc1,3675
COc1ccc(S(=O)(=O)N(C)C[C@H]2OCc3cnnn3CCCC(=O)N([C@H](C)CO)C[C@@H]2C)cc1,2942
C[C@H](NC(=O)c1ncn2c1C(=O)NC[C@@H]2C)C(=O)OC(C)(C)C,3679

2 of the compounds above, with each value named.
CCCNC(=O)C1(C)CCCN(Cc2ccsc2)C1 (stereo unspecified)
  Autofluor counter: 3038

COc1cccc(N2CCN(C(=O)c3ccc(Cl)c(S(=O)(=O)N4CCCCCC4)c3)CC2)c1
  Autofluor counter: 3456

(next part)
Structure,Autofluor counter
CS(=O)(=O)Nc1ccc(Br)cc1,6026
O=c1[nH]c2ccccc2n1C1CCN(C(CCc2ccccc2)c2nnnn2C2CCCCC2)CC1 (stereo unspecified),4277
CCCCN(C=O)c1c(CC)nc2ccc(C(=O)N(CC)CCN(C)C)cn12,3075
CCN(CC)c1ncnc2c1ncn2[C@H]1CN(Cc2ccc(-c3ccccc3)cc2)C[C@@H](CO)O1,3660
COc1cccc(-c2cnc3c(NC=O)cc(-c4ccc(N5CCN(C)CC5)cc4)cn23)c1,4116
Nc1nc2ccc(Cl)cc2cc1C(=O)NCCc1c[nH]c2ccccc12,5507
COCC(=O)Nc1ccc2c(c1)[C@@H]1C[C@H](CC(=O)OC)O[C@@H](CO)[C@@H]1O2,3775
C[C@@H]1CCCCO[C@@H](CN(C)S(=O)(=O)c2cn(C)cn2)[C@@H](C)CN([C@H](C)CO)C(=O)c2cc(NC(=O)Nc3ccc(C(F)(F)F)cc3)ccc2O1,3305
CC(C)C[C@H]1CN(CCCC[C@@H]2CNC(=O)C(=O)N2Cc2ccccc2)C(=O)C(=O)N1CCc1ccccc1,5688
Cc1ccc2nc(-c3ccccc3)c(Cc3cccc(F)c3)n2c1,6706
CC1=C(O)c2ccccc2C(=O)C1=O,5143
CC(C)C[C@H]1CN(CCCC[C@@H]2CNC(=O)C(=O)N2CC2CCCCC2)C(=O)C(=O)N1Cc1ccccc1,5546
CC(=O)O[C@H]1[C@@H](O)[C@H](O)[C@H](Oc2c(O)c(C)c3c4c2[C@@H](C)CC[C@@H]4[C@@H](C)C[C@@H]3C=C(C)C)O[C@H]1C,4922
O=C(OCC(=O)c1c[nH]c2ccccc12)c1ccc(OC(F)F)cc1,3716
COc1ccc(NC(=O)c2cc(-c3cc(Cl)ccc3OC)n[nH]2)c(C)c1,3804
Cc1nc2c(OCCOc3ccc(F)cc3)cccn2c1N(C)C(=O)CCC1CCCC1,3024
Cc1cccc(CN2CCN(C3CN(Cc4cn(Cc5ccccc5C(F)(F)F)nn4)S(=O)(=O)C3)CC2)c1 (stereo unspecified),5473
C[C@H](CO)N1C[C@H](C)[C@@H](CN(C)S(=O)(=O)c2ccc(C#N)cc2)OCc2cnnn2CCCC1=O,3676
N#Cc1ccc(CN(Nc2ccccc2)c2ccccc2)cc1,2837
COc1ccc(CNC(=O)CC[C@H]2O[C@@H](n3cc(C)c(=O)[nH]c3=O)C[C@@H]2O)cc1,6280
C=C(C)c1cccc(C(C)(C)NC(=O)N2CCN(C(=O)OCC)CC2)c1,3545
CN1CCN(C2CN(Cc3cn(Cc4ccccc4C(F)(F)F)nn3)S(=O)(=O)C2)CC1 (stereo unspecified),5006
C[C@H]1CN([C@@H](C)CO)C(=O)CCCn2nncc2CO[C@H]1CN(C)C(=O)Nc1ccc2c(c1)OCO2,4264
Fc1ccc(N2Cc3ccccc3-n3nncc3C2)cc1,5565
Cc1ccccc1Nc1nn2c(=O)c3ccc(C(=O)N4CCCC(C)C4)cc3nc2s1 (stereo unspecified),3074
Cc1ccccc1S(=O)(=O)NC(=O)C1(C)CCN1C(=O)CC(c1ccccc1)c1ccccc1 (stereo unspecified),3817
O=C(NCc1ccc(Cl)nc1)c1ccc2nc([C@@H]3O[C@H](CO)[C@H](O)[C@H](O)[C@H]3O)[nH]c2c1,3007
CCCc1nc2ccc(C(=O)OC)cn2c1Cc1ccccc1C(F)(F)F,7593
COc1ccc(-c2cc(NC(C)=O)c3ncc(-c4ccc(F)cc4)n3c2)cc1OC,3639
CCN(CCCNc1cc2c(c(N)c1S(=O)(=O)O)C(=O)c1ccccc1C2=O)c1ccccc1,3447

2 entries from above, with each value named.
Structure: Cc1ccccc1S(=O)(=O)NC(=O)C1(C)CCN1C(=O)CC(c1ccccc1)c1ccccc1 (stereo unspecified)
  Autofluor counter = 3817
Structure: O=C(NCc1ccc(Cl)nc1)c1ccc2nc([C@@H]3O[C@H](CO)[C@H](O)[C@H](O)[C@H]3O)[nH]c2c1
  Autofluor counter = 3007

Further records.
Structure,Autofluor counter
COc1cc(NC(=O)N2CCc3nc(Nc4cc(Cl)cc(Cl)c4)ncc3C2)cc(OC)c1OC,3733
O=C(Nc1ccc2c(c1)OCO2)c1cc(C2CCCCN2C(=O)OCCF)on1 (stereo unspecified),3948
O=c1c(=O)n(CCO)n(CCO)c(=O)n1CCO,2902
O=C(CNC(=O)N1CC(=O)Nc2ccccc21)NCCCc1ccccc1,3857
CCOc1ccc2ccccc2c1CNCCCN1CCOCC1,3656
O=C(NCc1ccccc1)c1cc(C2CCCN(S(=O)(=O)c3cccs3)C2)on1 (stereo unspecified),3516
CCOC(=O)C1=CCN(S(=O)(=O)c2ccc(Br)cc2)C1c1cccc(C)c1 (stereo unspecified),4490
CN(Cc1ccccc1)C(=O)c1ccc(Nc2nc(C(N)Cc3ccc(C(F)(F)F)cc3)cs2)nc1 (stereo unspecified),3569
CC(=O)Nc1cc(-c2ccccc2Cl)cn2c(-c3ccc(S(C)(=O)=O)cc3)cnc12,4491
C[C@H]1CN([C@@H](C)CO)C(=O)CCCn2cc(nn2)CO[C@@H]1CN(C)C(=O)C1CCCCC1,3500

Given field by field: part of the list above.
CC1=C(O)c2ccccc2C(=O)C1=O
  Autofluor counter = 5143
CC(C)C[C@H]1CN(CCCC[C@@H]2CNC(=O)C(=O)N2CC2CCCCC2)C(=O)C(=O)N1Cc1ccccc1
  Autofluor counter = 5546
CC(=O)O[C@H]1[C@@H](O)[C@H](O)[C@H](Oc2c(O)c(C)c3c4c2[C@@H](C)CC[C@@H]4[C@@H](C)C[C@@H]3C=C(C)C)O[C@H]1C
  Autofluor counter = 4922
O=C(OCC(=O)c1c[nH]c2ccccc12)c1ccc(OC(F)F)cc1
  Autofluor counter = 3716

Further compounds.
Compound	Autofluor counter
CCCCNC(=O)C[C@@H]1C[C@@]2(C(=O)OCC)CCC=C2N(Cc2ccco2)C1=O	6056
COc1ccc(C(O)c2ncc(-c3cccc(F)c3)[nH]2)cc1F (stereo unspecified)	4031
COc1ccc(-c2nc3ccc(Br)cn3c2Cc2ccc(C)cc2)cc1OC	4346
COc1cc(NC(=O)CCn2c(=S)[nH]c3ccccc3c2=O)cc(OC)c1OC	3633
C[C@H]1CN([C@@H](C)CO)C(=O)CCCn2cc(nn2)CO[C@@H]1CN(C)S(=O)(=O)c1ccc2c(c1)OCCCO2	3632
CC(=O)c1ccc(OC2(C)CCN(CCOc3ccc(C)cc3)C2)cc1 (stereo unspecified)	3050
Nc1nnnn1/N=C/c1ccccc1Cl	3587
CC1=C(C(=O)N2CCOCC2)CC(CC(=O)NCc2cccc3ccccc23)C(=O)N1CCC1=CCCCC1 (stereo unspecified)	3624
O=c1[nH]c2cc([N+](=O)[O-])ccc2c2cc(Br)ccc12	3507
COc1cccc(CNC(=O)[C@@H]2CCCN2C(=O)[C@H]2CCCCN2C(=O)c2cccc(Cl)c2)c1	5686
CCN1C(=O)[C@H]2[C@@H](c3ccccc3)N[C@]3(CCCN(Cc4ccccc4)C3=O)[C@H]2C1=O	4113
CN(C)C(=O)c1cccc(-c2cnc3c(NC=O)cc(-c4cccc(F)c4)cn23)c1	3096
CN1CCN(c2ccc(-c3cccc4nccn34)cn2)CC1	3037
CS(=O)(=O)c1ccc(C2=C(CNC(=O)c3ccncc3)[C@H]3CC[C@@H](C2)N3CCOc2ccccc2)cc1	3531
COc1ccc(NC(=O)C[C@@H]2C(=O)N(c3ccc(OC)cc3)CC2(C)C)cc1	2985
ON=C(c1ccccc1)c1ccc2c3c(cccc13)CC2	2918
Fc1cccc(F)c1C(Nc1nncs1)Nc1nncs1	4209
O=C1NC[C@H](Cc2ccccc2)N(C[C@@H]2CCCN2C[C@H](Cc2ccc(O)cc2)N2C[C@H](Cc3ccccc3)N(CC3CCCCCC3)C(=O)C2=O)C1=O	4338
OC[C@@H]1CN(Cc2ccncc2)C[C@H](n2cnc3c(NC4CCCC4)ncnc32)O1	2844
CN1OC[C@@H]2CN(S(=O)(=O)c3cccc4ccccc34)[C@H](c3ccc(N4CCCCC4)cc3)C[C@@H]21	25567*
CC(C)NC(=O)c1cc(C2CCCCN2C(=O)c2ccc(Cl)cc2)on1 (stereo unspecified)	2775
CCN(C)C1CN(Cc2cn(Cc3ccc(C(F)(F)F)cc3)nn2)S(=O)(=O)C1 (stereo unspecified)	4147
O=c1[nH][nH]c2c1[C@H](CCc1cccc(Cl)c1)O[C@H](C1CC1)C2	6239
COc1ccc(C(C)C)cc1S(=O)(=O)Nc1cccnc1	3820
CCCCn1nnnc1C(c1cc2ccccc2o1)N1CCN(c2cc(C)nc3ccccc23)CC1 (stereo unspecified)	6079
Cc1ccc(C(O)c2ncc(-c3ccccc3F)[nH]2)c(C)c1 (stereo unspecified)	3556
O=S1(=O)N[C@H](Cc2ccccc2)COc2cc(N3CCC[C@H]3CO)ccc21	4076
